# Screens: PubChem, National Center for Advancing Translational Sciences (NCATS)
# NS1 function inh – inhibitors of influenza NS1 protein function; S. cerevisiae slowed by influenza A NS1, growth recovery by OD600; AID 2326; Potency, µM (highest dose often 46.1 µM), without a hit: top-dose activity, positive = more growth; hit rate 0.4% among 270,000; also: actives are rising curves; nearly all actives have a fitted effect of over 50% in size
#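 S. cerevisiae expressing influenza A NS1, grown in glucose, washed, then diluted 1:100 into pH 6.0 -URA galactose medium with 23 nl compound. Growth recovery read as OD600; NS1-free strain serves as control.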
# SARS PLpro yeast – inhibitors of SARS-CoV papain-like protease in yeast; S. cerevisiae expressing SARS-CoV PLpro, growth rescue; control for the full effect not named in the record; hit rate 0.19% among 330,000; Potency, µM (top dose mostly 32.9 µM), without a hit: at the highest dose activity, positive = growth rescue; also: 0% is about no effect; nearly all actives have a fitted effect of over 55% in size; growth read by luminescence after 48 h
# MARV entry inh – inhibitors of Marburg virus binding or cell entry. Potency, µM (series often up to 37.8 µM), without a hit: at the highest dose activity change, negative = inhibition, actives largely listed as inhibitors. Marburg virus pseudotyped entry inhibition, cell reporter; control for the full effect not named in the record; about a third of the inactives were read at about 46 µM. AID 540276. hit rate 1.8% among 300,000; active = well fitted inhibition curve with a large enough effect; inconclusive = small, poorly fitted or top-dose-only effect, or effect the other way; inactive = flat fitted curve, though single readings scatter; tested in HEK293 cells; about a fifth of its hits are not listed in these tables; also: % is scaled to controls: 0 for no effect and ±100 for the full control effect; luciferase read-out
# Cruzain inh noDet – blocks cruzain activity in detergent-free assay; purified cruzain, Z-FR-AMC fluorescence, no detergent; Potency, µM, for the others: max response, negative = inhibition, most hits filed as inhibitors; P25779; hit rate 2.3% among 200,000; active = well fitted curve in the direction sought with a large enough effect; inconclusive = small, poorly fitted or top-dose-only effect, or another doubt; inactive = no such curve, though single readings can be large; an effect the other way counts as inactive or inconclusive;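 also: plate controls were enzyme without inhibitor for no effect and buffer without enzyme for full effect; nearly all actives have a fitted effect of over 40% in size; top concentration of the series not given in the record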
# Target sequence (P25779 123-467 limits assumed): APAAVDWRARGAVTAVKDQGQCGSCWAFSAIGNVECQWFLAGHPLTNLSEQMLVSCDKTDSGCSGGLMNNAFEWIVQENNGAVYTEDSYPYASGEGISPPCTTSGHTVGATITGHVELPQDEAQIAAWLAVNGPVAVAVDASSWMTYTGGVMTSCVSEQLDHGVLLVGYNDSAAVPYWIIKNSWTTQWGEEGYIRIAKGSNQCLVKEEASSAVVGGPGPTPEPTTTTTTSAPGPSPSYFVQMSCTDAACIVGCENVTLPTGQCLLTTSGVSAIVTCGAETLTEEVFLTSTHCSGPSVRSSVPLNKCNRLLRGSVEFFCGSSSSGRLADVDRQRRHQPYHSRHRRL
#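 Purified cruzain at 1.5 nM, pre-incubated 15 min with compound at room temperature in 100 mM sodium acetate pH 5.5, 5 mM DTT, 0.00005% Triton X-100. Reaction started with 2 uM Z-FR-AMC; AMC fluorescence increase over 60 s gives rate.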
# Cruzain Triton – cruzain (T. cruzi) inhibition with detergent | P25779 | purified cruzain, Z-FR-AMC fluorescence, 0.01% Triton | Potency, µM, for the others: max response, negative = inhibition, hits mostly inhibitors | hit rate 0.43% among 200,000 | AID 1478; active = well fitted curve in the direction sought with a large enough effect; inconclusive = small, poorly fitted or top-dose-only effect, or another doubt; inactive = no such curve, though single readings can be large; an effect the other way counts as inactive or inconclusive;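 also: plate controls were neutral wells for no effect and buffer without enzyme for full effect; nearly all actives have a fitted effect of over 40% in size; top concentration of the series not given in the record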
#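 Purified cruzain (1.5 nM final) was preincubated with compounds for 15 min at room temperature in 100 mM sodium acetate pH 5.5, 5 mM DTT, 0.01% Triton X-100. Reaction started with 2 uM Z-FR-AMC; AMC fluorescence change over 60 s gave activity.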
# StopGo reporter – lowers the luciferase signal of an FMDV 2A StopGo reporter. human cells with a luciferase reporter of 2A StopGo recoding; control for the full effect not named in the record. Potency, µM (top dose mostly 57.9 µM), for the others: at the highest dose signal change, negative = less light. hit rate 1.2% among 410,000; active = well fitted falling curve with a large enough effect; inconclusive = small, poorly fitted or top-dose-only effect; inactive = no such curve, though single readings can be large or run the other way; tested in HEK293T cells; also: % is scaled to controls: 0 for no effect and ±100 for the full control effect; nearly all actives have a fitted effect of over 45% in size; luciferase light after 4 h
# RE007 growth inh – less growth of the S. pombe RE007 Vpr strain. Potency, µM (doses to about 92.2 µM), for inactives: at the top dose activity change, negative = less growth. S. pombe RE007 Vpr strain, BacTiter-Glo ATP luminescence, 24 h; control for the full effect not named in the record. hit rate 0.21% among 360,000; active = well fitted falling curve with a large enough effect; inconclusive = small, poorly fitted or top-dose-only effect; inactive = no such curve, though single readings can be large or run the other way;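 also: % is scaled to controls: 0 for no effect and ±100 for the full control effect; nearly all actives have a fitted effect of over 50% in size; the assay follows cell death caused by Vpr and the record does not say whether a fall means rescue or toxicity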
#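 Fission yeast RE007 carrying one integrated HIV-1 vpr copy, seeded at OD 0.01 in PMG+AL medium with 23 nL pinned compound. Grown 24 h at 30 degrees; viability read by BacTiter-Glo luminescence after 5 min.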
# Lassa entry inh – inhibitors of Lassa virus binding or cell entry; Lassa virus pseudotype entry inhibition, cell reporter; control for the full effect not named in the record; Potency, µM (top dose mostly 37.9 µM), for inactives: top-dose activity change, negative = inhibition, usual class: inhibitors; hit rate 1.2% among 300,000; AID 540256; active means well fitted inhibition curve with a large enough effect; inconclusive means small, poorly fitted or top-dose-only effect, or effect the other way; inactive means flat fitted curve, though single readings scatter; tested in HEK293 cells; also: % is scaled to controls: 0 for no effect and ±100 for the full control effect; nearly all actives have a fitted effect of over 50% in size; luciferase read-out
# * hit, by the source's call; ? = inconclusive; nt = not tested or not shown; & = joins results of further samples; [ ] = remark or other dose. Unless noted, calls follow the shape of the dose curve; as a rule, active means well fitted rising curve with a large enough effect; inconclusive means small, poorly fitted or top-dose-only effect; inactive means no such curve, though single readings can be large or run the other way. Potency is read from the fitted curve at half-maximal effect.
SMILES,NS1 function inh,SARS PLpro yeast,MARV entry inh,Cruzain inh noDet,Cruzain Triton,StopGo reporter,RE007 growth inh,Lassa entry inh
COc1ccc(N(CC(=O)NC2CCCC2)C(=O)CCC(=O)Nc2nc(C)cs2)cc1OC,-5%,6%,8%[46.1 µM],nt,nt,6%,5%,-13%
Cc1cccc(-n2cc(-c3ccccc3)nc2SCC(=O)Nc2ccccc2Cl)c1,nt,nt,nt,-11%,0.3%,-4%,nt,-1%[46.1 µM]
Cc1cnc(C(=O)Nc2cccc(-c3nnc4n3CCCCC4)c2)cn1,-3%,11%,-10%,-1%,0.7%,-9%,22%,10%
O=C(COc1ccc(F)cc1Cl)Nc1cccc(S(=O)(=O)N2CCCCCC2)c1,nt,-3%,2%,nt,nt,-26%,12%,-29%
O=C(CCN1C(=O)c2ccccc2S1(=O)=O)Nc1ccccc1O,6%,9%,?,-2%,-3.9%,1%,1%,8%
COc1ccc(C(=O)Nc2ccc(C3(C#N)CCCC3)cc2)cc1,-1%,0%,11%[14.2 µM],nt,nt,16%,5%,?
O=C(COC(=O)c1ccccc1C(=O)c1ccccc1)NCCc1ccc(Cl)cc1Cl,9%,12%,?,1%,-4.0%,?,1%,?
C=CCOc1cccc(CNCCCN2CCOCC2)c1,6%,-1%,-15%[46.1 µM],nt,nt,2%,9%,?
CC1CCCCN1c1nnc(NC(=O)Cn2c(=O)oc3ccccc32)s1 (configuration not stated),-50%,-6%,-3%,3%,-3.9%,-9%,1%,nt
N#Cc1ccc(-c2nc3ccccc3nc2-c2ccccc2)cc1C#N,-2%,3%,-3%,-4%,-5.4%,?,1%,0%
Cc1cc(Cl)c(S(=O)(=O)Nc2ccc3c(c2)OCCO3)cc1OCC(=O)NC1CCCCC1,2%,0%,?,3%,-2.3%,?,-12%,-51%
COc1ccccc1C(=O)c1c(N)c(-c2nc(-c3ccccc3)cs2)c2ccccn12,nt,nt,-23%[46.1 µM],10µM*,-5.0%,20%,nt,-23%[46.1 µM]
CCOc1ccccc1-c1nc(-c2cc3ccccc3nc2OC)no1,0%,-2%,?,?,-0.6%,-15%,-4%,-20%
O=C(NCCc1ccccc1)C1(S(=O)(=O)c2ccc(Cl)cc2)CC1,-7%,2%,-10%[46.1 µM],nt,nt,-4%,-12%,4%[46.1 µM]
CC(Sc1nc(N)c2c3c(sc2n1)CSC(C)(C)C3)C(=O)Nc1ccccc1 (configuration not stated),12%,3%,?,5%,-3.7%,-30%,-4%,?
O=C1CC(N2CCCc3ccccc32)C(=O)N1c1ccccc1Cl (configuration not stated),-2%,0%,-8%,-23%,-6.0%,-28%,-25%,-4%
COc1ccc(C(=O)C(O)C(c2ccc(C)cc2)N2CCOCC2)cc1OC (configuration not stated),1%,0%,9%,nt,nt,25%,-3%,0%
COc1cccc(/C(C)=N/NS(=O)(=O)c2ccc(Cl)cc2)c1,-12%,-1%,7%[46.1 µM],nt,nt,23%,7%,-8%[46.1 µM]
CN1CCN(C(=O)CSc2ccc(Cl)cc2)CC1,4%,-3%,20%[46.1 µM],nt,nt,65%[activator],9%,2%
O=c1cc(N2CCCCC2)c(-c2ccccc2)n[nH]1,nt,-4%,2%[46.1 µM],nt,nt,-14%,10%,-23%
CC(C)c1ccc(S(=O)(=O)c2cnc(=S)[nH]c2N)cc1,4%,1%,-1%[46.1 µM],nt,nt,-17%,8%,-4%[46.1 µM]
COc1cccc(C(=O)Nc2ccc(NC(=O)C3CC=CCC3C(=O)O)cc2)c1 (configuration not stated),4%,4%,21%,nt,nt,6%,3%,12%
Cc1ccc(/C(N)=N/OC(=O)COc2ccccc2Cl)cc1,-5%,-2%,15%,-4%,-1.8%,28%,3%,9%
CN(C(=O)CSC1=Nc2ccccc2C2=NC(c3ccccc3)C(=O)N12)C1CCCCC1 (configuration not stated),15%,8%,-25%,-5%,-8.1%,32%[activator],-8%,-12%
CC(=O)Nc1ccc(/C(C)=N/NS(=O)(=O)c2ccccc2)cc1,11%,-3%,-1%,-7%,-2.1%,42%[activator],8%,-1%
Cc1nn(-c2ccccc2)c(N)c1N=Nc1cccc(S(=O)(=O)N2CCOCC2)c1,28%,-4%,?,nt,nt,-18%,10%,?
CN1CCCN(C(=O)c2ccc(Br)s2)CC1,6%,-3%,nt,nt,nt,-26%,-11%,nt
Cc1onc(-c2ccccc2)c1C(=O)NC(=S)NNC(=O)c1ccncc1,-4%,13µM*,-15%,3%,-4.7%,1%,1%,-3%
CN(C(=O)c1ccccc1OC1CCN(S(C)(=O)=O)CC1)C1CCOC1 (configuration not stated),3%,1%,nt,nt,nt,8%,-6%,nt
CCn1cc(C(=O)Nc2cccc(C(=O)OC)c2)c(=O)c2ccc(C)nc21,-4%,1%,0%,-3%,-1.0%,nt,-12%,-2%
COc1cccc(C(=O)COC(=O)c2n[nH]c(=O)c3ccccc23)c1,nt,-3%,-1%[46.1 µM],nt,nt,-13%,4%,23%[46.1 µM]
COc1ccc(CCN(C)C(=O)COc2ccc(C(=O)c3ccccc3)cc2)cc1OC,nt,0%,-3%,nt,nt,-21%,11%,9%
COc1ccc(C(C(=O)NCC2CCCO2)N(Cc2ccc(F)cc2)C(=O)CNC(=O)c2ccco2)cc1OC (configuration not stated),27%,6%,-2%[46.1 µM],nt,nt,1%,-2%,0%[46.1 µM]
COc1ccc(COCC(O)CN2CCc3ccccc3C2)cc1OC (configuration not stated),nt,1%,-8%[46.1 µM],nt,nt,-11%,-14%,-4%
Cc1ccc(Cl)c2sc(NC(=O)c3ccc(S(=O)(=O)N4CCCC4)cc3)nc12,nt,nt,nt,-3%,0.5%,?,nt,12%[46.1 µM]
O=C(NCCN1CCOCC1)c1cc(S(=O)(=O)NCCCN2CCCC2=O)ccc1Cl,3%,2%,?,-13%,-4.2%,11%,-26%,2%
CCCc1cc(C(=O)Nc2sc(C)c(C)c2C(=O)OCC)no1,8%,3%,-2%,20µM*,-2.7%,0%,-10%,nt
O=C(NC1CCCCCC1)C1CC(=O)N(c2ccc(Cl)cc2)C1 (configuration not stated),-16%,-1%,-1%[46.1 µM],nt,nt,23%,7%,0%[46.1 µM]
NC(=O)C1CCN(C(=O)C2CCC(=O)N(CC3CCCCC3)C2)CC1 (configuration not stated),-1%,-3%,-3%[46.1 µM],nt,nt,-6%,-3%,?
CC(C)CNC(=O)c1ccc(NC(=O)c2cccs2)cc1,8%,-2%,25%,-3%,-0.7%,40%[activator],nt,?
CC(C)C(CC(=O)N1CCCCC1)C1CCOC(C)(C)C1 (configuration not stated),3%,21%,-6%,10%,2.4%,-3%,2%,-1%
CC(=O)Nc1ccc(Nc2nc(-c3sc(C)nc3C)cs2)cc1,10%,3%,-40%,nt,nt,32µM*,2%,?
O=C(OCC(=O)N(CCc1ccccc1)Cc1ccccc1)c1ccccc1NCCO,-1%,-5%,nt,nt,nt,?,17%,nt
COc1cc(/C=N/Nc2nc3ccccc3s2)ccc1OC(=O)c1ccccc1F,-3%,7%,?,?,-3.1%,2%,2%,?
O=C(Nc1ccc(C(=O)OCc2cc(=O)n3c4c(sc3n2)CCCC4)cc1)c1ccc(F)cc1,nt,nt,nt,5%,0.2%,-5%,nt,16%[46.1 µM]
O=C(Nc1ccc(Br)cc1)C1OCCc2ccccc21 (configuration not stated),-69%,-9%,4%[46.1 µM],nt,nt,22%,-14%,-13%
CC1CCc2c(sc3nnn(CC(=O)Nc4cccc(C(F)(F)F)c4)c(=O)c23)C1 (configuration not stated),nt,nt,3%[46.1 µM],-4%,-4.1%,-8%,nt,2%[46.1 µM]
Cn1c(NC(=O)c2ccccc2)c(-c2ccccn2)c(=O)c2ccccc21,-2%,3%,14%,-1%,-2.7%,0%,-1%,-4%
C=CCn1c(Sc2nncn2C)nc2c1c(=O)[nH]c(=O)n2C,1%,20%,18%,23%,-1.1%,15%,17%,-3%
O=C(CN1CSCC1=O)N1CCN(S(=O)(=O)c2cc(C(F)(F)F)ccc2Cl)CC1,nt,-3%,14%,nt,nt,-7%,19%,6%[46.1 µM]
COc1ccccc1N1CCN(CCCNc2c(C)c(=O)n(C)c(=O)n2C)CC1,-11%,nt,?,5%,1.9%,-19%&-14%,8%,16%
CS(=O)(=O)c1ccc2sc(NC(=O)c3cc4ccccc4o3)nc2c1,-2%,-1%,-19%[46.1 µM],nt,nt,7%,-16%,-2%
Cc1ccccc1C1CC(c2ccccc2)Nc2ncnn21 (configuration not stated),5%,?,nt,-9%,3.9%,-13%,-4%,nt
COc1ccc(NC(=S)NNC(=O)C2CC2c2ccc(C)cc2)cc1 (configuration not stated),-3%,?,3%,-1%,-2.8%,-8%,35%,?
Fc1cccc(-c2n[nH]c(=S)n2-c2ccccc2)c1,13%,-3%,nt,nt,nt,12%,7%,nt
Cc1ccc(S(=O)(=O)N2CCCCC2)cc1NC(=O)COC(=O)Cc1cccc(C(F)(F)F)c1,21%,10%,1%,5%,-8.3%,2%,2%,14%
Cc1c(Cl)ccc2c(C(=O)Nc3cc(C(C)(C)C)on3)cc(-c3ccccn3)nc12,13%,-7%,-10%[46.1 µM],nt,nt,-5%,12%,-6%[46.1 µM]
OC1CCCCC1,nt,-6%,nt,-8%,2.8%,0%,5%,nt
COc1ccc(NC(=O)CN2CC(c3ccccc3)CC2=O)cc1OC (configuration not stated),-5%,16%,nt,5%,-0.4%,-16%,-1%,nt
COc1ccc(C2C(C(C)=O)=C(O)C(=O)N2c2ccc(C)cc2)cc1 (configuration not stated),11%,1%,nt,nt,nt,8%,8%,nt
COc1ccc(NC(=O)/C=C/c2ccccc2[N+](=O)[O-])c(OC)c1,-11%,-18%,-15%,-16%,-7.4%,7%,-13%,15%
